HSD17B inhib: inhibitors of human HSD17B10 dehydrogenase; Q99714; recombinant HSD17B10, NADH fluorescence kinetic; many of its hits are not listed in these tables; Potency, µM (series often up to 57.1 µM), for the others: at the top dose activity change, negative = inhibition, usual class: inhibitors; hit rate 7.6% among 75,000; AID 893; active = well fitted inhibition curve with a large enough effect; inconclusive = small, poorly fitted or top-dose-only effect; inactive = no such curve, though single readings can be large or run the other way;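 note: the protocol describes HADH2 (HSD17B10) and not the HSD17B4 of the title; nearly all actives have a fitted effect of over 70% in size; most hits overshoot -100% by far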
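Enzyme plus compound, 15 min room temperature; substrate mix added (NAD+ 1 mM, beta-hydroxybutyryl-CoA 90 uM final); plates read kinetically for NADH fluorescence. HADH2 was His-tagged, E. coli-derived, 20 nM.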
Active calls of the source: *; ? = inconclusive; & = joins results of further samples; [ ] = another dose, or the depositor's remark. % is set by controls: 0 for no effect and ±100 for the full control effect; potency is the fitted concentration of half-maximal effect. The list is partial; the hit share may differ from the screen's.

SMILES	HSD17B inhib
COc1ccc2[nH]cc(CCNc3nc(-c4c(C)noc4C)nc4ccccc34)c2c1	-5%
Cc1noc(C)c1CSc1nnc2scc(-c3ccc(Cl)cc3)n12	-9%
CCCC(c1nnnn1CS(=O)(=O)c1ccc(C)cc1)N1CCN(c2ccccc2)CC1 (centres undefined)	-5%
CC(NC(=O)Cn1cnc2c1c(=O)n(C)c(=O)n2C)c1ccccc1 (centres undefined)	-5%
Cc1c(C(=O)NCc2cccnc2)oc2ccc(S(=O)(=O)N3CCCC(C)C3)cc12 (centres undefined)	1%
COC(=O)c1ccccc1NC(=O)c1cc(-c2ccc(OC)c(OC)c2)on1	8%
CCS(=O)(=O)NCC(c1cccnc1)N1CCN(c2ccccc2OC)CC1 (centres undefined)	1%
COc1ccc(S(=O)(=O)C(C#N)c2nc3ccccc3nc2N2CCC(C)CC2)cc1 (centres undefined)	-14%
COc1ccc(CN2CCCCCC2)c(C)c1C	5%
Cn1cccc1C(=O)N1CCC2(CCCN(c3ccccn3)C2)CC1	20µM*
c1ccc(CSc2nnc(-c3ccco3)c(-c3ccco3)n2)cc1	10µM*
COc1ccccc1NC(=O)C1=C(C)Nc2nc(-c3cccs3)nn2C1c1cccnc1 (centres undefined)	0%
COCCOc1ccc(C(F)(F)F)cc1NC(=O)COC(=O)c1c(C)noc1C	12%
COCCn1c(SCC(=O)Nc2sc(C)c(C)c2C#N)nnc1-c1ccc(OC)cc1	-2%
COCCOC(=O)c1[nH]c2c(c1C)C(=O)CC(c1ccc(F)cc1)C2 (centres undefined)	10%
CNC(=O)Nc1ccccc1NC(=O)NC	14%
CC(=O)Nc1ccc(S(=O)(=O)N2CCN(CCC#N)CC2)cc1	-1%
CC(C)c1cc(Nc2cccc(O)c2)cc(C(C)C)c1O	16µM*
CC1CN(c2nc3c(c(=O)[nH]c(=O)n3C)n2Cc2ccccc2F)CC(C)O1 (centres undefined)	10%
O=C(NCC(=O)N(c1ccccc1F)C(C(=O)NCC1CCCO1)c1ccccc1)c1ccco1 (centres undefined)	10%
COCCCNC(=O)CSc1ccc(Cl)cc1	-4%
Cc1ccc(-c2nc(C#N)c(NCc3cccc4c3OCO4)o2)cc1	20µM*
COc1ccc(C(=O)c2c[nH]c3ccccc23)cc1	-2%
CC(=O)c1cc(OC(=O)N2CCOCC2)ccc1OC(=O)N1CCOCC1	5%
CCOC(=O)C1CCN(C(=O)c2cc(S(=O)(=O)N3CCOCC3)c(Cl)cc2Cl)CC1	12%

Next section
SMILES	HSD17B inhib
CCCCS(=O)(=O)N1CN(S(=O)(=O)CCCC)C2NC(=O)NC21 (centres undefined)	-2%
COc1ccc(OC)c(NC(=O)CCN2CCCC(C)C2)c1 (centres undefined)	12%
O=C(CSc1nnnn1-c1ccccc1)Nc1nsc(-c2ccc(Cl)cc2)n1	?
N#Cc1nc(COc2cccc(Cl)c2)oc1NCc1ccncc1	2%
Cc1occc1-c1nnc(SCC(=O)c2ccc(Cl)cc2)n1C	-13%
COc1cccc(OC)c1OCC(O)CN1CCN(c2ccccc2)CC1 (centres undefined)	5%
COc1ccccc1-c1nc(C(N)=O)c2[nH]c(=O)n(-c3cccc(C)c3)c2n1	25µM*
COc1cc(CSc2ncn[nH]2)c(OC)cc1CSc1ncn[nH]1	1%
O=C1C2=CC[C@H]3C(=O)N(C4CCCCC4)C(=O)[C@@H]3[C@@H]2[C@H](O)[C@@H]2O[C@H]12	-4%[11.4 µM]
N#CC1=C(N)Oc2cc3c(cc2C1c1ccc(Cl)cc1)OCO3 (centres undefined)	?
CC(C)c1ccccc1S(=O)(=O)c1cc(N)c2ncccc2c1[N+](=O)[O-]	16%
O=C(CCC1CCCCC1)Nc1c[nH]c(=O)[nH]c1=O	5%
O=C(CCn1c(=O)oc2ccccc21)N1CCN(c2ccccc2F)CC1	4%
CCCCNc1cc(C(=O)O)cc(S(N)(=O)=O)c1Oc1ccccc1	25µM*
Cc1cc(-c2ccco2)n(CC(=O)NCCN(C)C)n1	7%
COc1ccc2[nH]cc(CCNc3ncncc3-c3ccoc3)c2c1	4%
Cc1nc2oc3c(NCC4CCCO4)ncnc3c2c2c1COC(C)(C)C2 (centres undefined)	20µM*
CN1CCN(C(=O)c2cc3c(n(-c4ccccc4)c2=O)CC(C)(C)CC3=O)CC1	-8%
C=C1C(C(=O)N2CCOCC2)C1C(=O)N1CCOCC1 (centres undefined)	-5%
Cc1cc(NS(=O)(=O)c2ccc(NC(=O)Nc3cccc(Cl)c3)cc2)no1	17%
N#CC1=C(N)Oc2cc(O)ccc2C1C1CCCCC1 (centres undefined)	-8%
O=S(=O)(NC1=NCCCCC1)c1cccs1	1%
CCOC(=O)N1CCN(C(=O)c2oc3ccc(S(=O)(=O)N4CCCCCC4)cc3c2C)CC1	3%
CCN(CC)CCCNC(=O)c1cc2c(=O)n(C)c3ccccc3c2n1C	32µM*
Cc1nn(-c2nc3ccccc3[nH]2)c(N)c1-c1ccccc1	-21%

Next part, overlapping the part above by 3 compounds.
SMILES	HSD17B inhib
CCOC(=O)N1CCN(C(=O)c2oc3ccc(S(=O)(=O)N4CCCCCC4)cc3c2C)CC1	3%
CCN(CC)CCCNC(=O)c1cc2c(=O)n(C)c3ccccc3c2n1C	32µM*
Cc1nn(-c2nc3ccccc3[nH]2)c(N)c1-c1ccccc1	-21%
Nc1nonc1-c1nc2ccccc2n1Cc1ccc(Cl)cc1	3%
COC(=O)c1ccccc1NC(=O)N1c2ccccc2CC1C (centres undefined)	?
CN(C)C(=O)CN1C(=O)C2CCCCN2C(=O)c2ccccc21 (centres undefined)	1%
CC1C(C#N)=C(N)OC2=C1C(=O)CC(C)(C)C2 (centres undefined)	-7%
CCOC(=O)c1ccc(N2C(=O)c3n[nH]c(C)c3C2c2ccccc2)cc1 (centres undefined)	-6%
Cc1ccc(NC(=O)COC(=O)c2ccc3c(c2)NC(=O)C2CCCN32)cc1 (centres undefined)	?
CCc1c(C)nc(N)n2c(SCC(=O)N3CCCc4ccccc43)nnc12	5%
CCOC(=O)C1CCN(Cc2coc3ccc(Cl)cc3c2=O)CC1	-2%
COc1ccc(N2CCN(C(=O)CSc3ncnc4c3cnn4-c3ccc(OC)cc3)CC2)cc1	12%
CC(C)C(c1nnnn1Cc1ccccc1)N1CCN(Cc2ccc3c(c2)OCO3)CC1 (centres undefined)	-5%
NCCNCCNCCNCCN	-3%
Cn1c2c(c(=O)n(C)c1=O)C1c3ccccc3OCC1C(C)(C)O2 (centres undefined)	1%
Cc1ccc2c(c1)c1ncnc(N3CCN(c4ccccc4)CC3)c1n2C	25µM*
CCCc1[nH]nc2c1C(C1CCCCC1)C(C#N)=C(N)O2 (centres undefined)	7%
N#Cc1ccc(CN2CCC3(CC2)CCN(C(=O)c2ccncc2)CC3)cc1	6%
CC(C)C(c1nnnn1C1CCCCC1)N1CCOCC1 (centres undefined)	3%
COc1ccccc1-c1cncnc1N(C)Cc1ccco1	-5%
O=C(CS(=O)(=O)c1cn(Cc2ccc(F)cc2)c2ccccc12)N1CCCCC1	5%
Cc1ccc(S(=O)(=O)OCC(=O)O)cc1	4%[11.4 µM]
Cc1noc(C)c1C(=O)Nc1nnc(-c2ccccc2)s1	-3%
O=C(c1ccc(S(=O)(=O)N2CCOCC2)cc1)N1CCN(c2ccccc2F)CC1	5%
Cn1c(Cc2csc(N)n2)nnc1SCC(=O)NC1CCCCC1	6%
COc1cccc(N(CC(=O)NCCSc2ccccc2)S(C)(=O)=O)c1	0%
CCOC(=O)c1c(CN2CCOCC2)n(C)c2cc(Br)c(O)c(CN(C)C)c12	-14%
O=C(Nc1ccon1)c1cnc2sccn2c1=O	25µM*

Carrying on:
SMILES	HSD17B inhib
COc1ccc2c(C)c(C(=O)NCC(C)O)oc2c1OC (centres undefined)	32µM*
Cc1noc(C)c1S(=O)(=O)N1CCC(Cc2ccccc2)CC1	-5%
COC(=O)[C@@H]1C[C@H]1[C@@H](NC(=O)c1cc(C)nn1C)c1ccccc1	-9%
COc1ccc(C2C(=O)N(CCc3ccccc3)CC(=O)N2C2CCCC2)cc1 (centres undefined)	0%
CCCC(C(=O)NCC1CCCO1)N(Cc1ccco1)C(=O)CNS(=O)(=O)c1ccc(F)cc1 (centres undefined)	1%
O=C(Cn1c(C(=O)N2CCN(C3CCCCC3)CC2)cc2sccc21)c1ccccc1	4%
COc1ccccc1C1CC(c2ccc(C)cc2)Nc2ncnn21 (centres undefined)	3%
Cc1ccc(NC(=O)C2CCCN(S(=O)(=O)c3c(C)noc3/C=C/N(C)C)C2)cc1F (centres undefined)	5%
O=C(NC(=O)c1ccc(Cl)c(Cl)c1)OC1CCS(=O)(=O)C1 (centres undefined)	3%
OC(COCC1COc2ccccc2O1)CN1CCc2ccccc2C1 (centres undefined)	-6%
C[C@H](O/N=C1/[C@H]2O[C@@H]2[C@@H](O)[C@H]2[C@H]1CCn1c(=O)n(-c3ccccc3)c(=O)n12)c1cn([C@H](CO)Cc2ccccc2)nn1	-3%&-1%[11.4 µM]
COC(=O)c1cccc(NC(=O)CN2CCOCC2)c1	5%
CCOC(=O)Nc1ccc2c(c1)ncn2C1CCCCC1	-1%
Cc1ccc(-c2nnc(COc3cccc(-n4cnnn4)c3)o2)cc1	-3%
CCc1c(C)nc2ncnn2c1Nc1ccc(C#N)c(Cl)c1	1%
CCOC(=O)C1=C(C)N=C2SC(CC)C(=O)N2C1c1cccc(F)c1 (centres undefined)	-1%
Clc1cc2c(c(Cn3cnc4ccccc43)c1)OCOC2	2%
CC1(C)C(=O)N(CCN2CCC(C(=O)c3ccc(F)cc3)CC2)c2ccccc21	-2%
Cc1oc(-c2ccc(Cl)cc2)nc1CN1CCCC(C(=O)N2CCc3ccccc32)C1 (centres undefined)	10%
CCOC(=O)[C@H](N)/C=C(\C)CP(=O)(O)O	-2%
CS(=O)(=O)c1ccc(CNC(=O)[C@@H]2C[C@H]2[C@@H](NP(=O)(c2ccccc2)c2ccccc2)c2ccccc2)cc1	?
O=C(CSc1nnc(-c2cccnc2)n1Cc1ccco1)Nc1nc(-c2ccc(F)cc2)cs1	3%
CC(=O)NC(c1ccccc1)c1nc2ccccc2[nH]1 (centres undefined)	4%
Cc1cccc(C(=O)OCc2cc3ccccc3[nH]c2=O)c1	-14%
COc1c[nH]n(C2CCCCC2)c(=O)c1=O	9%

Six structures out of the list, ordered by molecular weight, low to high.
SMILES	HSD17B inhib
COc1c[nH]n(C2CCCCC2)c(=O)c1=O	9%
COC(=O)c1cccc(NC(=O)CN2CCOCC2)c1	5%
CCOC(=O)Nc1ccc2c(c1)ncn2C1CCCCC1	-1%
Clc1cc2c(c(Cn3cnc4ccccc43)c1)OCOC2	2%
CCc1c(C)nc2ncnn2c1Nc1ccc(C#N)c(Cl)c1	1%
O=C(Cn1c(C(=O)N2CCN(C3CCCCC3)CC2)cc2sccc21)c1ccccc1	4%

(more compounds)
SMILES	HSD17B inhib
Cn1cccc1C(=O)N1CCC2(CC1)CN(C(=O)Nc1cccc(F)c1)C2	0%
CCOC(=O)N1CCN(CC(=O)Nc2ccc(C)c(Br)c2)CC1	7%
Cc1cccc(NC(=O)CC(C)(C)C)c1	8%
C[C@@]12CC[C@@H]3c4ccc(O)cc4C[C@H](CCCCCCCCCS(=O)CCCC(F)(F)C(F)(F)F)[C@H]3[C@@H]1CC[C@@H]2O (some centres undefined)	29%
CCCCNC(=O)CN1CCC2(O)CCCCC2C1c1ccccc1OC (centres undefined)	4%
COC(=O)c1ccc(CSc2ncnc3ccccc23)o1	-1%
CSc1ccc(C2C(C#N)=C(N)N(c3ccccc3)C3=C2C(=O)CCC3)cc1 (centres undefined)	-13%
Cn1c(=O)[nH]c(=O)c2c1nc(N1CCNCC1)n2Cc1cccc2ccccc12	-20%
COC(=O)c1sc2ccccc2c1N	25µM*
CCCc1cc(=O)[nH]c(SCC(=O)N2CCN(S(=O)(=O)c3ccc(C)cc3)C2)n1	14%
COc1ccc(CCNC(=O)C2CCCN(Cc3nc(-c4cccc(Cl)c4)oc3C)C2)cc1OC (centres undefined)	6%
NC(=O)c1cc(N)ccc1N1CCCC1	?
Cc1cc(NC2C3CC4CC(C3)CC2C4)n2ncnc2n1 (centres undefined)	1%
CCN1C(=O)c2cccc3c(S(=O)(=O)NC(Cc4c[nH]c5ccccc45)C(=O)O)ccc1c23 (centres undefined)	8%
Cc1onc(-c2c(F)cccc2Cl)c1C(=O)N[C@H]1C(=O)N2[C@H]1SC(C)(C)[C@H]2C(=O)O	2%[25.6 µM]
CCN(C(=O)c1cc2cc3ccc(C)cc3nc2o1)c1ccc(OC)cc1	?
O=C(c1ccc(CNc2c(N3CCOCC3)c(=O)c2=O)cc1)N1CC=C(c2ccccc2)CC1	-3%
COc1ccc(C(=O)CSc2nnc(-c3ccco3)n2C)cc1	4%
CCCCOCC(O)CN1CCN(C(C)=O)CC1 (centres undefined)	12%
CCCC[C@@H]1C[C@H]1C(NC(=O)c1ccccc1)c1ccc(C(F)(F)F)cc1 (some centres undefined)	-10%
CCOC(=O)c1cnc2c(C(=O)OC)cccc2c1NCCN1CCOCC1	-13%

Fetched by compound from the entries so far:
SMILES	HSD17B inhib
O=C(c1ccc(S(=O)(=O)N2CCOCC2)cc1)N1CCN(c2ccccc2F)CC1	5%
CC(C)c1ccccc1S(=O)(=O)c1cc(N)c2ncccc2c1[N+](=O)[O-]	16%
COc1ccccc1C1CC(c2ccc(C)cc2)Nc2ncnn21 (centres undefined)	3%

High-throughput results: PubChem, National Center for Advancing Translational Sciences (NCATS)
